GALR2 ag: GALR2 receptor agonists, primary screen, cell-based. Galanin receptor type 2 (Homo sapiens), O43603. GALR2-expressing cells, agonist activation read-out. activation, %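 (tested at 5 µM)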. hit rate 0.48% among 140,000;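 active = above mean plus 3 SD of all compounds, about 5% in these data, not always enough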;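 also: 0% = vehicle buffer wells and 100% = reference agonist at full effect; tested in CHO reporter cells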
PKD1 kinase inh: inhibitors of human PKD1 kinase, biochemical, fluorescence polarization | PKD1 kinase fluorescence polarization assay | Serine/threonine-protein kinase D1 (Homo sapiens), Q15139 | AID 797, 2007 | inhibition, %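 (about 10 µM by stock and volumes)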 | hit rate 0.056% among 200,000;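 active = inhibition of 50% or more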;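 also: controls were vehicle for no effect and a reference inhibitor for full effect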
Target sequence (Q15139 whole entry, looked up): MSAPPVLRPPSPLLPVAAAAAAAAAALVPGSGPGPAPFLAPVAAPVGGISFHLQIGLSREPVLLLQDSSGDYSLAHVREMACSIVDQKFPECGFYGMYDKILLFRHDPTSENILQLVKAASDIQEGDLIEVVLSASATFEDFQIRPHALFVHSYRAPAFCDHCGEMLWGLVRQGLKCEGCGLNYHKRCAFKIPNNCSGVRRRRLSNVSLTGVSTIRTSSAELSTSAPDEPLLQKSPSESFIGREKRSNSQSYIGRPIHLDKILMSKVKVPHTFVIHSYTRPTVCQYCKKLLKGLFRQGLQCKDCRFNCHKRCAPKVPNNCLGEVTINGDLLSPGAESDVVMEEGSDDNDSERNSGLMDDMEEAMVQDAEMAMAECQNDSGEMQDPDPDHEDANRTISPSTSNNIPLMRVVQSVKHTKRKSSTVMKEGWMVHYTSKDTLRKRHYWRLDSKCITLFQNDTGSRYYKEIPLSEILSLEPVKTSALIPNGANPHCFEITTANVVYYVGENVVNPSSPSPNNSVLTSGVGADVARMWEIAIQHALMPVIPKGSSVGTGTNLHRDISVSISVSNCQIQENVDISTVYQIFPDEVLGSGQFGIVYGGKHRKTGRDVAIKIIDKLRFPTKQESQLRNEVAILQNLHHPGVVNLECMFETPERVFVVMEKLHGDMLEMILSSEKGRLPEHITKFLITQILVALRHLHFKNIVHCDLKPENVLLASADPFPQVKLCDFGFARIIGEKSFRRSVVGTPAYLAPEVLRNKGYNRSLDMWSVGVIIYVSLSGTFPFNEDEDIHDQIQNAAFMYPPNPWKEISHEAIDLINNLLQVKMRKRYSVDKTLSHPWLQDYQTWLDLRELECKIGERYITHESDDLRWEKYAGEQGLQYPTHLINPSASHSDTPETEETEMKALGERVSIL
HSV augment: enhancers of HSV replication in host cells, fold increase, host cell viability; maximum fold increase; hit rate 0.005% among 220,000; HSV replication augmentation in cells;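 active = peak rise of 1.5-fold or more in the series; tested in PC3 cells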;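 also: first round at 10 µM; read as green reporter fluorescence; hits show the peak of a series up to 25 µM; 1 = signal of infected wells without compound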
RGS16-Gao HTS: modulators of RGS16 binding to Galphao, primary screen, biochemical, human proteins, multiplexed bead flow cytometry; Regulator of G-protein signaling 16 (Homo sapiens) + Guanine nucleotide-binding protein …; bead-based flow cytometry RGS16-Galphao binding, fluorescence; actives lie on both sides; binding response (% of control), % at 10 µM; hit rate 0.38% among 220,000; AID 1441, 2008;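 active = below 25% or above 175%, edge rows of some plates excepted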;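 also: Galphao activated by GDP with aluminum fluoride before binding; 100% = wells without compound and 0% = beads without RGS; some results beyond the cut were filed as inactive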
Insulin prom inh: inhibitors of insulin promoter-driven GFP, primary screen, imaging, TRM-6 cells (human fetal islet line), eGFP reporter, cell count. reporter expression induced with tamoxifen. inhibition, % at 2 µM. hit rate 0.9% among 130,000. AID 1273, 2008;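 active = inhibition above the mean plus 3 SD, with well images judged a real hit on visual review, cut at about 60% in these data, passing the limit was not always enough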
Insulin prom inh cell count: further read-out of Insulin prom inh, marked with its call; normalized cell count, %; measured here: cell count, toxicity; reference of the scale not given here;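 cells exposed to compound for 48 h; stained nuclei by imaging scaled within each plate; lower means fewer cells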
HSV augment primary fold: further read-out of HSV augment, marked with its call; fold increase; compound at 10 µM; measured here: primary screen fold increase 10 uM; tested in PC3 cells;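 GFP signal in the first replicate; 1 = infected wells without compound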
Numbers without * were called inactive; i = inactive; nt = no result given.

SMILES	GALR2 ag	PKD1 kinase inh	HSV augment	HSV augment primary fold	RGS16-Gao HTS	Insulin prom inh	Insulin prom inh cell count
CC(=O)c1ccc(NC(=O)COC(=O)CCN2C(=O)c3cccc([N+](=O)[O-])c3C2=O)cc1	-0.1	-6	i	0.97	96	0	109
CCOC(=O)CN1C(=O)C(CC)Oc2ccccc21 (stereo not drawn)	0.0	-5	i	1	106	nt	nt
CCn1c(=S)[nH]c2sc3c(c2c1=O)CCCCC3	nt	-4	i	0.99	101	24	120
COC(=O)c1cccc(NC(=O)NC(=O)c2ccc(Cl)cc2)c1	nt	nt	i	0.72	100	nt	nt
Cc1ccc(Cl)cc1N1CCN(C(=O)Cc2c(C(=O)O)[nH]c3ccc(Cl)cc23)CC1	nt	-5	i	1	98	nt	nt
CCC(CC)C(=O)Nc1cccc(C(=O)Nc2nnc(C)s2)c1	nt	-7	i	1	100	nt	nt
Cc1cc(C)cc(NC(=O)c2oc3ccccc3c2COc2ccccc2)c1	-0.7	-5	i	0.99	100	0	101
CCn1c(SCC(=O)N(C)c2c(N)n(Cc3ccccc3)c(=O)[nH]c2=O)nc2ccccc21	nt	nt	i	0.74	99	nt	nt
COc1ccc(NC(=O)c2c(C)cc(=O)oc2C)c(OC)c1	-3.2	10	i	1	104	0	98
COc1ccc(CCNC(=O)CSc2nnc(Cc3cccn3C)n2C)cc1OC	nt	4	i	1.1	102	21	78
CC1(C)C([N+](=O)[O-])C(c2ccccc2O)NC(c2ccccc2O)C1[N+](=O)[O-] (stereo not drawn)	nt	4	i	1	106	nt	nt
O=c1[nH]c(CSc2nc3ccccc3s2)nc2ccccc12	nt	nt	i	1.1	101	nt	nt
COCCNC(=O)c1ccc(CN2CCOCC2)cc1	-0.8	1	i	1.1	139	44	132
COc1cc(CO)ccc1Oc1nnnn1-c1ccc(C(N)=O)cc1	-2.1	-4	i	1.1	101	31	69
N#C/C(=C/c1ccc(CNC(=O)C(=O)Nc2cc(Cl)cc(Cl)c2)o1)C(=O)NCc1cccnc1	-0.3	-3	i	0.98	103	nt	nt
CN=C(C)/C(C(=O)OC)=C(/O)c1ccc(Cl)cc1Cl	nt	nt	i	0.96	102	nt	nt
Cc1cc(NC(=O)c2cnn3cccnc23)nn1CC(=O)Nc1cccnc1	-4.0	0	i	1.1	101	-20	59
COc1cc(C(=O)O/N=C2/C=C(C)C(=O)C=C2C)cc(OC)c1OC	1.1	1	i	0.88	103	nt	nt
Cc1ccc(NC(=O)OCc2ccccc2S(C)=O)cc1 (stereo not drawn)	nt	4	i	0.97	101	-69	115
CCN(CC)CCCOc1ccc(C)cc1Br	-2.8	3	i	0.93	100	nt	nt
NC(=S)Nc1cccc(-c2n[nH]c(=S)o2)c1	nt	nt	i	0.7	100	nt	nt
Cc1cccc(C)c1-n1c(C)cc(/C=C2\C(=O)NN(c3ccccc3)C2=O)c1C	-0.1	2	i	0.85	100	-29	105
O=C(Nc1cccc(S(=O)(=O)NC2=NCCC2)c1)C1CCCCC1	nt	nt	i	1	100	nt	nt
S=C(NCCC1=CCCCC1)Nc1ccccc1	-1.5	-2	i	0.7	100	43	67
N#CCSCC(=O)Nc1ccc(F)cc1	-3.4	-9	i	0.96	100	-493	49
CCn1c(C)nc2cc(C(=O)N/N=C/c3ccc(OC)cc3)ccc21	nt	-3	i	0.99	100	nt	nt
C/C(N)=C(/C#N)C(=O)CSc1cc(C)c2ccccc2n1	nt	-2	i	1	100	nt	nt
O=C(Nc1nc(-c2ccc3c(c2)Cc2ccccc2-3)cs1)c1ccccc1	-1.7	-9	i	1	85	-50	73
Cc1nn(C(C)C(=O)N2CCOCC2)c(C)c1[N+](=O)[O-] (stereo not drawn)	-2.5	-6	i	1.1	104	nt	nt
O=C(NCc1ccco1)C1CCC(CNS(=O)(=O)c2cccc3cccnc23)CC1 (stereo not drawn)	-1.9	2	i	1	102	nt	nt

A different layout for 2 compounds above:
Screens in order: GALR2 ag	PKD1 kinase inh	HSV augment	HSV augment primary fold	RGS16-Gao HTS	Insulin prom inh	Insulin prom inh cell count
Cc1ccc(Cl)cc1N1CCN(C(=O)Cc2c(C(=O)O)[nH]c3ccc(Cl)cc23)CC1
→ nt	-5	i	1	98	nt	nt
CCC(CC)C(=O)Nc1cccc(C(=O)Nc2nnc(C)s2)c1
→ nt	-7	i	1	100	nt	nt

Taken from above.
`CCn1c(C)nc2cc(C(=O)N/N=C/c3ccc(OC)cc3)ccc21` in HSV augment primary fold: 0.99
`Cc1cc(NC(=O)c2cnn3cccnc23)nn1CC(=O)Nc1cccnc1` in HSV augment primary fold: 1.1
`Cc1cccc(C)c1-n1c(C)cc(/C=C2\C(=O)NN(c3ccccc3)C2=O)c1C` in Insulin prom inh: -29
`CCN(CC)CCCOc1ccc(C)cc1Br` in PKD1 kinase inh: 3
`Cc1ccc(NC(=O)OCc2ccccc2S(C)=O)cc1` (stereo not drawn) in PKD1 kinase inh: 4
`COc1cc(C(=O)O/N=C2/C=C(C)C(=O)C=C2C)cc(OC)c1OC` in PKD1 kinase inh: 1
`S=C(NCCC1=CCCCC1)Nc1ccccc1` in GALR2 ag: -1.5

Additional structures
SMILES	GALR2 ag	PKD1 kinase inh	HSV augment	HSV augment primary fold	RGS16-Gao HTS	Insulin prom inh	Insulin prom inh cell count
COC(=O)CCC(=O)Nc1ccc(NC(C)=O)cc1	-3.2	-5	nt	nt	101	10	107
CN(NC(=O)CN1C(=O)c2ccccc2C1=O)C1=NS(=O)(=O)c2ccccc21	nt	-2	i	0.94	101	25	86
N#C/C(C(=O)N1CCOCC1)=C1\Nc2ccccc2S1	-1.2	9	i	0.79	108	-42	109
COc1ccc(CCNC(=O)c2noc3c2CCCC3)cc1OC	-1.7	-13	i	1.1	100	nt	nt
CN(C(=O)c1ccccc1C(=O)OCC(=O)NC(=O)NC(C)(C)C)C1CCCCC1	nt	-1	i	0.96	105	nt	nt
COCCCNc1oc(-c2ccccc2F)nc1C#N	-1.4	4	i	0.9	100	nt	nt
CC(=O)N1CCc2cc(C(=O)CN3CCN(C(=O)c4ccco4)CC3)ccc21	-3.5	-7	i	1.1	105	nt	nt
Cc1cccc(N2CN(Cc3cccnc3)CNC2=S)c1	-0.3	9	i	0.89	105	nt	nt
COc1ccc2[nH]c(=O)c(CN(C(C)=O)C3CCCCC3)cc2c1	-0.7	3	i	1	108	nt	nt
COc1ccccc1/C=N/NC(=S)Nc1cccnc1	nt	-9	i	0.71	77	0	97
c1ccc(CSc2nncn2-c2ccccn2)cc1	-1.9	-18	i	1.2	101	7	78
CCCCC1=CC2=C(c3ccco3)C(=O)C(C)(OC(=O)c3ccc(OC)cc3)C(=O)C2=CN1c1ccc(OC)cc1 (stereo not drawn)	nt	nt	i	1.3	78	nt	nt
C=CCSC1=C(C#N)C(c2ccccc2OC)CC(=O)N1 (stereo not drawn)	-1.6	9	i	0.88	105	0	83
O=C(O)c1nn(-c2ccccc2)nc1-c1nn(-c2ccccc2)nc1C(=O)O	-0.9	5	i	0.94	84	nt	nt
COc1ccc(/C=N/n2c(N)c(S(=O)(=O)c3cccs3)c3nc4ccccc4nc32)cc1OC	-0.1	8	i	0.67	95	7	73

Gathered by group: those above containing fluorine (2)
SMILES	GALR2 ag	PKD1 kinase inh	HSV augment	HSV augment primary fold	RGS16-Gao HTS	Insulin prom inh	Insulin prom inh cell count
N#CCSCC(=O)Nc1ccc(F)cc1	-3.4	-9	i	0.96	100	-493	49
COCCCNc1oc(-c2ccccc2F)nc1C#N	-1.4	4	i	0.9	100	nt	nt

Carrying on:
SMILES	GALR2 ag	PKD1 kinase inh	HSV augment	HSV augment primary fold	RGS16-Gao HTS	Insulin prom inh	Insulin prom inh cell count
CSc1ccccc1NC(=O)CN(Cc1ccccc1)S(C)(=O)=O	1.0	-4	i	1.1	105	-41	86
Cc1c([N+](=O)[O-])cc(S(=O)(=O)Nc2ccncc2)cc1[N+](=O)[O-]	nt	9	i	1.1	106	nt	nt
CCOC(=O)C1CCCN(C(=O)c2sc3nc(-c4ccccc4)cn3c2C)C1 (stereo not drawn)	-0.2	-5	i	0.65	76	-37	102
O=C(NC(=S)Nc1ccccc1N1CCCCC1)c1ccccc1	nt	-1	i	0.96	94	nt	nt
O=C(Nc1ccccc1C(=O)Nc1nnc(C(F)(F)F)s1)c1ccccc1Cl	nt	nt	i	0.94	101	nt	nt
COCCNC(=S)NCCc1ccc(Cl)cc1Cl	nt	0	i	0.93	98	nt	nt
Cc1ccc(CNC(=O)COC(=O)CCCOc2ccc(Cl)cc2Cl)cc1	-0.4	10	i	1	103	-6	130
O=C(c1ccccc1)c1ccc(N2CCNCC2)cc1	-2.5	-5	i	0.99	88	-186	92
O=C1CN(C(=O)CSc2nc3ccccc3c(=O)n2CCCN2CCOCC2)c2ccccc2N1	nt	nt	i	0.97	99	nt	nt
CC1(C)CC(=O)C(C(c2cccc([N+](=O)[O-])c2)C2C(=O)CC(C)(C)CC2=O)C(=O)C1	-1.1	-3	i	1	107	-33	139
CC1C2(C)OC(=N)C(C#N)(C(C)O2)C1(C#N)C#N (stereo not drawn)	nt	nt	i	1.2	103	nt	nt
COc1ccc(C(=O)NN2C(=S)N(c3ccc(OC)cc3)C(=O)C2CC(N)=O)cc1 (stereo not drawn)	nt	nt	i	0.75	102	nt	nt
CCOC(=O)NC(CC(=O)O)c1ccc(OCC)cc1 (stereo not drawn)	-1.7	3	i	0.99	98	31	91
O=C(CCSc1ccccc1)N1CCN(c2ccccc2F)CC1	nt	3	i	0.93	108	-18	134
CC1CN(C(=O)C(C)N2CCN(c3ccccc3Cl)CC2)CC(C)O1 (stereo not drawn)	nt	-1	i	0.99	100	11	165

Of the compounds above, 2 contain a thiophene ring, fused or not.
SMILES	GALR2 ag	PKD1 kinase inh	HSV augment	HSV augment primary fold	RGS16-Gao HTS	Insulin prom inh	Insulin prom inh cell count
CCn1c(=S)[nH]c2sc3c(c2c1=O)CCCCC3	nt	-4	i	0.99	101	24	120
COc1ccc(/C=N/n2c(N)c(S(=O)(=O)c3cccs3)c3nc4ccccc4nc32)cc1OC	-0.1	8	i	0.67	95	7	73

Continued.
SMILES	GALR2 ag	PKD1 kinase inh	HSV augment	HSV augment primary fold	RGS16-Gao HTS	Insulin prom inh	Insulin prom inh cell count
CN(CC(=O)Nc1ccc2c(c1)OCO2)S(=O)(=O)c1ccc2c(c1)CCC(=O)N2	nt	nt	i	1	99	nt	nt
CC1(C)CC(=O)c2sc(NS(C)(=O)=O)nc2C1	-2.3	-4	i	0.97	104	-31	85
COc1ccc(Cl)cc1NC(=O)CCc1ccccc1	-2.1	-5	i	0.85	109	27	112
O=C(Nc1ccc2snnc2c1)N1CCCCC1	nt	2	i	0.96	103	nt	nt
CCNC(=S)Nc1cc(C(=O)N2CCCC2)ccc1N1CCCC1	nt	2	i	0.96	101	nt	nt
CCN1C(=O)C2(C(C(=O)c3cc4ccccc4o3)=C(O)C(=O)N2CCCN2CCOCC2)c2ccccc21 (stereo not drawn)	nt	nt	i	0.87	100	nt	nt
O=C(CCCc1ccccc1)NCCN1CCOCC1	-3.1	-3	i	1	102	-96	107
Cn1nc(CC(=O)NCc2ccc(F)cc2)c2ccccc2c1=O	-2.8	-15	i	0.92	104	nt	nt
Cc1cc(C)nc(NS(=O)(=O)c2ccc(NC(=O)c3ccc4c(c3)OCO4)cc2)n1	-1.7	-3	i	0.98	93	42	100
C=CCn1c(SCC(=O)c2cccs2)nc2sc(CC)cc2c1=O	0.5	-2	i	0.81	102	-6	79
CC(=O)c1cccc(S(=O)(=O)N(C)C2CCN(C)CC2)c1	nt	-3	i	1	101	nt	nt
Cc1ccc(S(=O)(=O)n2cnc3cc([N+](=O)[O-])ccc32)c(C)c1	-1.0	-13	i	1	101	63	112

Bioassay records: PubChem BioAssay, several laboratories
